From PubChem BioAssay
B2AR ag: activates human beta-2 adrenergic receptor causing internalization. P07550. Am2.2-beta2AR cells, FAP receptor internalization, flow cytometry; reference of the scale not given here. response, % (test concentration not listed). 340,000 tested, 0.43% active. AID 504454;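 active = response above a set limit, near 3 SD of response in nonfluorescent compounds, cut at about 42% in these data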;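 also: stock transfer was 100 nL into about 11 µL; a reference agonist was the positive control; negative values mostly stem from fluorescent compounds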
rRNA inh HTS: selective bacterial rRNA inhibition in E. coli | 350,000 tested, 1.6% active | GFP signal change (wild-type ribosome), % (concentration not given with the values) | E. coli WT GFP vs humanized-ribosome RFP mutants, fluorescence, 24 h; active compounds read low; DMSO median 0, no signal -100;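 active = significant combined selectivity score with lowered wild-type GFP, culture density cut under 30%, mutant RFP and density less affected; inactive = any of these conditions unmet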; also: one replicate is shown; some compounds called inactive have numbers as strong as hits
ALR inh: blocks human ALR sulfhydryl oxidase activity. inhibition, % (test concentration not listed). 290,000 tested, 3.8% active. P55789. purified ALR, DTT oxidation, H2O2 HRP-luminol luminescence. AID 485317;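 active = mean and each replicate at 75% or more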;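 also: stock transfer was 7.5 nL into about 7.5 µL; 0% = neutral wells and 100% = wells with inactivated enzyme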
Target sequence (P55789 whole entry, looked up): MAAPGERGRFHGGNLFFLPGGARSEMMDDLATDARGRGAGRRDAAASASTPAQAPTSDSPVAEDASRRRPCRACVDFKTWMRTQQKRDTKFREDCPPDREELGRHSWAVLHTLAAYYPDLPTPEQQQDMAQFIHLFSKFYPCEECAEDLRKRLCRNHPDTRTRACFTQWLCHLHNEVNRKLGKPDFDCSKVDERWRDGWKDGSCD
FGF22 binding: binders of recombinant human FGF22 by thermal shift; Q9HCT0; SYPRO orange fluorescence; percent of sucrose octasulfate shift, DMSO zero; calls only at 9.99 µM; 340,000 tested, 1.5% active; AID 651658;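 active = melting point raised past a set limit in the mean and every replicate; three in four hits are not shown here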
Target sequence (Q9HCT0 whole entry, looked up): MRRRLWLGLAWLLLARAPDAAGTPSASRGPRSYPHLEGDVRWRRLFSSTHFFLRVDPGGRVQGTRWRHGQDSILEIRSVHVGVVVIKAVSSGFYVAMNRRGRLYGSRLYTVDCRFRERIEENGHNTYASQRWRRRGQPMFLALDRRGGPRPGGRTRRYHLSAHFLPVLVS
HNF4A DNA FP: change in binding of human HNF4 alpha to DNA | HNF4a-FITC DNA binding, fluorescence polarization, 1 h | activity change, % at 10 µM | AID 1224865 | 360,000 tested, 0.3% active; in the data active = activity change above about 30%, passing the limit was not always enough;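 also: controls were the assay level and a saturating level of protein; the project sought stronger binding though the title names inhibitors; some compounds called inactive have numbers as strong as hits; positive values seem to mean higher polarization but the record does not say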
UCH37 DUB inh: human UCH37 deubiquitinating enzyme inhibition. inhibition, % (concentration not given with the values). AID 588478. Q9Y5K5. purified proteasome/UCH37, Ub-AMC cleavage fluorescence. 330,000 tested, 0.33% active;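 active = mean of two replicates above 20%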;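 also: 0% = compound-free wells with enzyme and 100% = wells lacking proteasome; stock transfer was 100 nL into about 20 µL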
Target sequence (Q9Y5K5 whole entry, looked up): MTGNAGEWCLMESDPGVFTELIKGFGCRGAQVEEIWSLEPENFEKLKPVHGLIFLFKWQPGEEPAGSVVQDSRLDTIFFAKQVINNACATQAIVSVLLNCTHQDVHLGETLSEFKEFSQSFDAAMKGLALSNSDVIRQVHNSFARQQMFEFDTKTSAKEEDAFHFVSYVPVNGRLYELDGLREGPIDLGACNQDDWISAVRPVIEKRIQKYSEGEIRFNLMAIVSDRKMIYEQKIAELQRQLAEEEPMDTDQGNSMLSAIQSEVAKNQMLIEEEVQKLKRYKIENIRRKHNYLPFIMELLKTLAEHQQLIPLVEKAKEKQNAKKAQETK
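Material: Human UCH37 enzyme supplied as purified proteasome complex | Schedule: 30 min preincubation with enzyme, 25 min cleavage at room temperature | Detection: AMC fluorescence 355/460 nm | Measure: % inhibition of Ub-AMC cleavage fluorescence | Controls: Wells without proteasome as full block, compound-free enzyme plus substrate as uninhibited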
Ecoli growth: E. coli growth inhibition. Escherichia coli growth, OD600, 23 h; active compounds read low. OD600 absorbance (concentration not given with the values). 330,000 tested, 0.21% active. AID 1053175;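 active = OD600 absorbance below the run mean of sample wells minus 3.6 SD, in any replicate, cut at about 0.56 in these data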;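 also: stock transfer was 300 nL into about 60 µL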
rRNA inh HTS OD600: recorded beside rRNA inh HTS, whose call it bears; OD600 change, %; measured here: OD600 growth;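 optical density of the mix in the first replicate; 0 = DMSO median and -100 = no signal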
rRNA inh HTS RFP: recorded beside rRNA inh HTS, whose call it bears; RFP signal change, %; measured here: RFP humanized mutant strains;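 first replicate; 0 = DMSO median and -100 = no signal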
Starred values were filed as active, the others as inactive; i = inactive; . = not tested or not shown. Not all compounds are listed (hit frequency here may not be typical).

SMILES	B2AR ag	rRNA inh HTS	rRNA inh HTS OD600	rRNA inh HTS RFP	ALR inh	FGF22 binding	HNF4A DNA FP	UCH37 DUB inh	Ecoli growth
N#Cc1c(-n2cccc2/C=N/O)sc2c1CCCC2	-5.0	.	.	.	14.0	.	2.0	.	.
Cc1cc(O)c(NC(=O)c2cccc([N+](=O)[O-])c2)cc1C	0.7	2.2	11.1	-1.2	0.3	i	4.1	6.0	0.636
COCOCCn1cc(CN2CCS(=O)(=O)N(Cc3ccc(-c4ccccc4)cc3)C(C(C)C)C2=O)nn1 (stereo not drawn)	.	-12.7	-30.0	-0.9	.	i	2.5	.	.
O=C(CSc1ncccc1-c1nc2ccccc2[nH]1)NC1CC1	-4.2	.	.	.	-8.9	.	8.8	-16.3	0.667
O=C(CSc1nc(-c2ccccc2)cs1)NC(=O)NCc1ccco1	7.3	.	.	.	2.5	.	-2.9	1.3	0.695
CCOC(=O)C1(CCCc2ccccc2)CCN(C(=O)C(C)n2cncn2)CC1 (stereo not drawn)	0.8	-0.4	-15.7	-0.9	-2.7	i	3.0	2.7	0.715
O=C(O)CC/C(=N/Nc1ccc([N+](=O)[O-])cc1)C(=O)O	4.1	13.9	9.8	0.1	-17.1	i	1.2	.	.
N=c1c2c(-c3ccccc3)c(-c3ccccc3)oc2ncn1Cc1ccco1	-5.0	.	.	.	5.7	.	0.2	-5.4	0.64
COc1cccc(OC)c1C(=O)Nc1ccc(N2CCN(S(C)(=O)=O)CC2)cc1	-12.0	.	.	.	-12.6	.	-0.9	3.2	0.744
COc1ccccc1N(C)S(=O)(=O)c1ccc(C(=O)Nc2nnc(C)s2)cc1	1.1	0.8	-0.3	0.9	.	i	0.4	2.3	0.649
CCCCOC(=O)C(C)Nc1n[nH]c(=O)[nH]c1=O (stereo not drawn)	-6.7	.	.	.	-4.2	.	0.9	-1.1	0.684
CCOC(=O)c1c(N)c2cc([N+](=O)[O-])ccc2n1C	1.2	4.4	8.4	-1.5	9.8	i	3.8	0.7	0.613
Cc1csc(SCC(=O)Nc2ccc(S(=O)(=O)N3CCCC3)cc2)n1	6.6	.	.	.	-55.2	.	-1.8	0.4	0.587
NC(=O)C1CCN(c2nc(-c3ccc4occc(=O)c4c3)cs2)CC1	-8.3	.	.	.	98.8*	.	-1.6	4.2	0.68
c1ccc(OCc2nn3c(-c4n[nH]c5c4CCC5)nnc3s2)cc1	10.7	.	.	.	-2.1	.	-3.4	4.3	0.765
CCOC(=O)C1=C(CS(=O)(=O)c2ccccc2)NC(=O)NC1c1ccccc1OC (stereo not drawn)	-6.0	0.0	-2.5	-0.4	-7.8	i	-2.3	4.1	0.653
CC(C)(C)C(=O)CN1C(=O)NC(c2ccccc2)(c2ccccc2)C1=O	-0.8	2.0	0.2	2.0	.	i	-2.1	2.8	0.681
O=S1(=O)CCC(n2ncc3c2/C(=C/c2ccccc2)CC3)C1 (stereo not drawn)	-11.9	5.2	-3.4	-0.7	-15.7	i	-0.9	4.5	0.666
CCOc1cccc(Oc2ncccc2C(=O)/C(C#N)=C/N(C)C)c1	0.2	.	.	.	-6.8	.	0.4	4.5	0.645
COC(=O)c1cc(/C=C/c2ccccc2)[nH]n1	-2.5	10.1	2.0	-3.5	-5.5	i	-2.5	.	.
CCCOC(=O)c1c(NC(=O)C2CCCO2)sc(C(=O)OC)c1C (stereo not drawn)	-8.5	-0.4	-0.8	-2.4	.	i	-0.4	-21.4	0.712
CCOc1ccc(C(=O)NCCCN(CC)CC)cc1	-2.3	.	.	.	-3.3	.	0.9	3.2	0.729
COc1cc(C(=O)NCC(c2cccs2)N2CCc3ccccc32)cc(OC)c1OC (stereo not drawn)	-2.2	-3.8	-26.9	2.3	36.6	.	16.2	-4.7	0.626
O=C(NCc1ccc(N2CCCC2=O)cc1)c1cn(Cc2ccccc2)nn1	-6.8	.	.	.	-17.6	.	5.9	0.8	0.697
O=S(=O)(c1c(F)cccc1F)C1CCN(S(=O)(=O)c2ccc3c(c2)OCCO3)CC1	-2.5	12.5	10.5	10.2	-4.2	i	-1.4	1.1	0.705
CCCN(CCC)c1c([N+](=O)[O-])c(=O)oc2ccccc12	5.6	.	.	.	-0.3	.	-4.2	5.1	0.707
Cn1c(C=O)c(C#CC(C)(C)O)c2ccccc21	11.0	9.0	-3.6	17.4	-3.7	i	2.0	-1.2	0.791
CC1(C)Cc2cccc(OCC(=O)Nc3ccccc3F)c2O1	2.7	-16.0	-18.0	-1.8	.	i	-0.2	.	.
Cc1c(Cl)cccc1NC(=O)CN1CCC(NC(=O)C2CCCCC2)CC1	4.2	.	.	.	25.4	.	-3.2	-2.2	0.703
C[C@@H](NC(=O)[C@@H]1Cc2ccccc2CN1C(=O)OC(C)(C)C)C(=O)NCC1CCCO1 (stereo partly drawn)	-7.7	3.3	14.9	-2.8	0.3	i	3.5	7.1	0.685
Cc1ccc(S(=O)(=O)c2c(COC(=O)c3cccc(Cl)c3)c(-c3ccccc3)nn2C)cc1	7.0	.	.	.	-4.4	.	3.8	3.2	0.709
Clc1cccc(NC2=NCCC2)c1	2.1	13.4	9.6	-2.1	0.1	.	2.4	-0.3	0.709
CCOC(=O)c1ccc(C(=O)OCC)c(NC(=S)Nc2ccc([N+](=O)[O-])cc2OC)c1	-5.6	.	.	.	.	.	2.9	-52.5	0.684
Cc1ccc(C(=O)CNc2ccc(F)cc2)cc1	0.4	.	.	.	-18.2	i	3.5	3.5	0.709
CCOC(=O)C1(CCOc2ccccc2)CCN(Cc2ccc(O)cc2)CC1	10.7	13.2	12.2	1.5	-3.0	i	2.0	5.4	0.661
NNC(=O)CSc1nnnn1-c1ccccc1	-7.1	3.4	-0.4	-1.6	3.4	i	-0.4	1.3	0.703
CCOCCCNCc1c(Cl)cccc1Cl	10.9	18.1	15.0	1.2	-19.6	i	0.8	-1.2	0.66
Cc1cc(C)c(N2C(=O)C3C4CC(=O)C(c5ccccc54)C3C2=O)c(C)c1 (stereo not drawn)	9.9	9.3	0.6	-3.8	-8.2	i	2.7	2.7	0.722
CN(CC(=O)NCCc1ccccc1)Cc1ccco1	-2.9	10.0	4.3	-0.8	-0.6	i	2.2	0.1	0.662
CCOc1ccc(S(=O)(=O)NCCC(=O)NCc2ccccn2)cc1	-2.1	5.0	9.5	0.2	-6.9	i	4.3	-1.0	0.633
Cc1noc(C)c1S(=O)(=O)Nc1c(C)n(C)n(-c2ccccc2)c1=O	0.5	.	.	.	.	.	-1.0	1.5	0.639
CC(=O)N1CCc2c(sc(NC(=O)c3ccc(S(=O)(=O)N(C)CC4CCCO4)cc3)c2C(N)=O)C1 (stereo not drawn)	.	-1.2	1.1	19.7	.	i	5.4	.	.
O=C(N/N=C/c1ccccc1)c1ccc(NC(=O)c2ccc(F)cc2)cc1	0.3	-2.5	8.8	-0.8	-3.8	i	0.1	.	.
O=C(CCn1cccc1)Nc1ccc(F)cc1	-1.9	.	.	.	.	.	-5.5	-0.8	0.685
CC(C)Oc1ccc(C(CC(=O)N2CCOCC2)C(C)C)cc1 (stereo not drawn)	9.3	1.8	7.3	-0.9	.	i	0.6	1.3	0.681
Cc1ccc(NC(=O)Cc2ncc(C(F)(F)F)cc2Cl)cc1Cl	-3.9	.	.	.	-2.2	.	-1.0	2.3	0.776
O=C(NCc1ccco1)c1ccccc1Br	-2.4	.	.	.	-1.1	.	-2.1	1.9	0.723
COc1cccc2cc(C(=O)N3CCN(C/C=C/c4ccccc4)CC3)c(=O)oc12	-0.1	.	.	.	-9.3	.	3.6	-0.2	0.72
CN(C1CCCCC1)S(=O)(=O)c1ccc2c(c1)CCC(=O)N2	-5.9	-0.6	0.5	-1.2	.	i	-0.7	1.7	0.697

Grouped by structure: those above containing fluorine
SMILES	B2AR ag	rRNA inh HTS	rRNA inh HTS OD600	rRNA inh HTS RFP	ALR inh	FGF22 binding	HNF4A DNA FP	UCH37 DUB inh	Ecoli growth
O=S(=O)(c1c(F)cccc1F)C1CCN(S(=O)(=O)c2ccc3c(c2)OCCO3)CC1	-2.5	12.5	10.5	10.2	-4.2	i	-1.4	1.1	0.705
CC1(C)Cc2cccc(OCC(=O)Nc3ccccc3F)c2O1	2.7	-16.0	-18.0	-1.8	.	i	-0.2	.	.
Cc1ccc(C(=O)CNc2ccc(F)cc2)cc1	0.4	.	.	.	-18.2	i	3.5	3.5	0.709
O=C(N/N=C/c1ccccc1)c1ccc(NC(=O)c2ccc(F)cc2)cc1	0.3	-2.5	8.8	-0.8	-3.8	i	0.1	.	.
O=C(CCn1cccc1)Nc1ccc(F)cc1	-1.9	.	.	.	.	.	-5.5	-0.8	0.685
Cc1ccc(NC(=O)Cc2ncc(C(F)(F)F)cc2Cl)cc1Cl	-3.9	.	.	.	-2.2	.	-1.0	2.3	0.776

Just rRNA inh HTS RFP, Ecoli growth and FGF22 binding, for some of the entries so far:
SMILES,rRNA inh HTS RFP,Ecoli growth,FGF22 binding
Cc1cc(C)c(N2C(=O)C3C4CC(=O)C(c5ccccc54)C3C2=O)c(C)c1 (stereo not drawn),-3.8,0.722,i
Cc1ccc(NC(=O)Cc2ncc(C(F)(F)F)cc2Cl)cc1Cl,.,0.776,.
